Screens deposited in PubChem by several laboratories.
CSC inhib: cancer stem cell viability inhibitors, primary screen, luminescence. cancer stem cell-like cells viability. inhibition, % at 7.5 µM. 300,000 tested, 1.1% active. AID 2717, 2010;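 active = mean at 75% or more and at least half the replicates too; inconclusive = mean and replicates disagree; tested in HMLE shEcad cells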;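 also: 0% = median of negative and 100% = median of positive control wells; the first replicate is given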
UUG fidelity: modulators of yeast start codon fidelity, primary screen, whole organism, S. cerevisiae, single point, plate reader; activity score, % at 18.7 µM; S. cerevisiae UUG-firefly luciferase reporter, luminescence/redox ratio; 350,000 tested, 0.13% active;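 active = replicate mean at a twofold rise or more, about +100% in these data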;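 also: firefly luciferase made from a UUG start codon reports start codon fidelity; reporter light over untreated wells divided by growth signal over untreated wells; some hits fall short of that in this replicate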
HIV Env fusion: inhibitors of HIV-1 Env-driven cell-cell fusion, primary screen, HeLa-JRFL effector, CEM21 target cells, luciferase; AID 651610, 2012; 360,000 tested, 1.1% active; inhibition, % at 12.3 µM;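 active = mean replicate inhibition score of at least 50 and every replicate individually at or above 50; inconclusive = only one of the two criteria met; inactive = mean below 50 and not all replicates reaching 50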;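 also: 0% = plate neutral controls and 100% = maraviroc near 300 nM; one replicate is shown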
Rce1 inhib: yeast Rce1p protease inhibitors, primary screen, biochemical, fluorescence, cell-free homogeneous; CAAX prenyl protease 2 (Saccharomyces cerevisiae (strain ATCC 204508 / S288c)), Q03530; yeast membranes, quenched prenylated peptide cleavage fluorescence; calls only; 290,000 tested, 0.27% active; AID 2563, 2010;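 active = fall in fluorescence gain of 50% or more versus controls, with final raw signal at or below 3038400; inconclusive = same 50% fall but final raw signal above 3038400; inactive = fall in fluorescence gain under 50%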;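 also: plate controls were neutral control wells for no effect and wells lacking membranes for full effect; tested at 10 µM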
Target sequence (Q03530 whole entry, looked up): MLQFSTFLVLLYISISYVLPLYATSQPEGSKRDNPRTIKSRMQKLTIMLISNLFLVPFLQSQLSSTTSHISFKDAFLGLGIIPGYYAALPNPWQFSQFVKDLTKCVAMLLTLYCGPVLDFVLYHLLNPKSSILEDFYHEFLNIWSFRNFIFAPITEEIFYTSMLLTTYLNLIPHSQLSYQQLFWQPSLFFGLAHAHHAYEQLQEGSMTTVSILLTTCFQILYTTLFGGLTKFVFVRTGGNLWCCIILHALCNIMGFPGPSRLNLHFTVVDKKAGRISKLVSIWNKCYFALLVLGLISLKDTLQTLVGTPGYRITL
PABP polyA inh: PABP poly(A) RNA binding inhibitors, primary screen, biochemical, fluorescence polarization, uHTS; Polyadenylate-binding protein 1 (Homo sapiens), P11940; inhibition, % at 35 µM; 290,000 tested, 1% active; AID 2014, 2009;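 active = 50% or more with normal probe brightness, or confirmed in later tests; inconclusive = above 50% with abnormal brightness, or retests that disagree; inactive = below 50% or failed in later tests; about a fifth of its hits are not listed in these tables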;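 also: calls also rest on retests at 20 µM and on dose response follow-up; controls were probe without protein and protein plus probe with vehicle; some compounds called inactive have numbers as strong as hits; many hits fall short of the cut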
eIF4H inh: human eIF4H binding inhibitors, primary screen, translation initiation inhibitor project, biochemical, uHTS, fluorescence polarization | Eukaryotic translation initiation factor 4H (Homo sapiens), Q15056 | eIF4H fluorescence polarization binding assay | inhibition, % at 35 µM | 290,000 tested, 0.94% active;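 active = 50% or more with normal probe brightness, or confirmed in later tests; inconclusive = above 50% with abnormal brightness, or retests that disagree; inactive = below 50% or failed in later tests; about a fifth of its hits are not listed in these tables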;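 also: calls also rest on retests at 20 µM and on dose response follow-up; 0% = protein and probe with vehicle and 100% = probe without protein; strong numbers were not always called active; many hits fall short of the cut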
MT1-MMP act inh: blockers of MT1-MMP proenzyme processing, primary screen, HT1080 RFP-PRO-GFP cells, GFP/RFP fluorescence. 360,000 tested, 0.061% active. GFP/RFP ratio change, % at 20 µM. Matrix metalloproteinase-14 (Homo sapiens), P50281. GFP/RFP ratio fluorescence, overnight; percent of plate control window, DMSO zero;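 active = GFP/RFP ratio change of at least 30% with cell ATP level not reduced by more than half and red fluorescence within 50% of control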; also: strong numbers were not always called active
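Material: RFP-PRO-GFP reporter HT1080 cells. Dosing: single-point 20 µM compound, 1% DMSO. Controls: DMSO and RFP-L50D-GFP cell wells. Timing: cells overnight before dosing, compound overnight, 37 °C, 5% CO2. Measure: GFP/RFP fluorescence ratio.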
eIF4H inh retest: second read-out of eIF4H inh, no call of its own (marks repeat the call); inhibition, %; compound at 20 µM; confirmation average;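 mean of two retest wells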
PABP polyA inh retest: further read-out of PABP polyA inh, marked with its call; inhibition, %; compound at 20 µM; confirmation repeats;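 mean of two retest wells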
MT1-MMP act inh RFP: also measured in MT1-MMP act inh; calls as there; RFP signal change, %; measured here: RFP expression control read;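 0 = vehicle wells; hits needed this value within 50% of zero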
Active calls of the source: *; i = inactive; u = inconclusive; x = not tested or not shown.

SMILES	CSC inhib	UUG fidelity	HIV Env fusion	Rce1 inhib	PABP polyA inh	eIF4H inh	MT1-MMP act inh	MT1-MMP act inh RFP	others
Cc1ccc(S[C@@H](CCN2CC[C@H](C)CCC2=O)c2ccccc2)cc1	40	-6	6	i	-2	-6	-8	-19
CCCCc1nc(Cl)c(C#N)c2c1CCC2	3	-11	-18	i	7	7	-2	-2
Cc1ccc(Cn2c(C3CCCN3c3nc(C)cs3)nc3cc(C(=O)NCCCO)ccc32)cc1 (stereo not given)	-8	-14	-21	i	x	x	4	2
O=C(O/N=C/c1ccc(Cl)cc1)C1CCCCC1	-5	-5	5	i	-4	-5	-3	3
CN1C(=O)CSC1=S	-1	-3	8	i	-1	-7	1	2
O=[N+]([O-])c1ccc(NCCCNS(=O)(=O)c2ccccc2)cc1	1	x	16	i	-2	0	-6	-5
COc1ccc(NC(=O)CCc2ccccc2)cc1S(=O)(=O)N1CCCCC1	-16	7	7	x	x	x	6	-10
COc1ccc(NC(=S)N2CCCN(Cc3cc(C)ccc3C)C2)cc1	0	-24	9	i	4	5	-1	0
CC(C)CCSc1nc(N)c(C#N)cc1C#N	24	-11	82*	i	10	-2	-36	-12
Cc1cc(C)c(Cn2c3ccccc3c3cnn(CC(=O)NCc4ccccn4)c(=O)c32)c(C)c1	31	-14	16	i	-19	-7	-3	-5
O=C(NCCCN1CCCC1=O)c1ccc(OC(F)(F)F)cc1	x	x	0	i	-5	6	-2	-9
COc1ccccc1C(=O)NCCn1cc(SCC(=O)NCc2ccco2)c2ccccc21	-4	0	x	i	-6	0	3	-8

Three records drawn at random from the list so far, as already listed:
SMILES	CSC inhib	UUG fidelity	HIV Env fusion	Rce1 inhib	PABP polyA inh	eIF4H inh	MT1-MMP act inh	MT1-MMP act inh RFP	others
CCCCc1nc(Cl)c(C#N)c2c1CCC2	3	-11	-18	i	7	7	-2	-2
Cc1cc(C)c(Cn2c3ccccc3c3cnn(CC(=O)NCc4ccccn4)c(=O)c32)c(C)c1	31	-14	16	i	-19	-7	-3	-5
CN1C(=O)CSC1=S	-1	-3	8	i	-1	-7	1	2

Other entries
SMILES	CSC inhib	UUG fidelity	HIV Env fusion	Rce1 inhib	PABP polyA inh	eIF4H inh	MT1-MMP act inh	MT1-MMP act inh RFP	others
COCCCn1cnc2c(c1=O)c1nc3ccccc3nc1n2CCc1ccccc1	x	-28	-50	i	11	5	7	-1
O=C(CCN1C(=O)/C(=C/c2ccccc2F)SC1=S)Nc1ccccn1	-1	-9	12	i	2	-13	2	5
COc1nc(C#N)nc(N(C)C)n1	0	-15	-99	i	0	82	-3	-4	eIF4H inh retest=-4;PABP polyA inh retest=7
O=C(c1cc(COc2ccc(F)cc2Cl)on1)N1CCCC(OCc2cccnc2)C1 (stereo not given)	-4	x	14	i	-8	6	-2	-11
Cc1onc(-c2ccccc2Cl)c1C(=O)Nc1ccccc1N1CCOCC1	-6	-7	x	i	11	6	-5	-3
CCOc1ccc(OCCC(=O)N(CCC(C)C)c2c(N)n(Cc3ccccc3)c(=O)[nH]c2=O)cc1	6	-7	-5	i	x	x	-14	-11
COc1cc(C)nc(N2CCCC(C(=O)Nc3cccc(Cl)c3Cl)C2)n1 (stereo not given)	-5	-15	x	i	4	7	4	2
CN(C(=O)COC(=O)C12CC3CC(CC(Cl)(C3)C1)C2)C1(C#N)CCCCC1	25	-6	3	x	x	x	2	-1
NC(=O)c1cc2ccccc2o/c1=N/NC(=O)c1cccc(Cl)c1	-7	8	14	i	3	-5	1	1
COc1ccc(NS(=O)(=O)c2ccc3oc(=O)ccc3c2)cc1	-22	-24	7	x	11	-5	-5	-4
Cc1cc2oc(=O)c(CC(=O)NCCCO)c(C)c2c2occ(C(C)(C)C)c12	21	2	-13	i	2	7	3	-3
O=C(Nc1ccccc1)N(CCc1nc2ccccc2[nH]1)C1CCCC1	-7	-17	-14	i	-3	-5	0	4
Cc1cc(C)cc(NC(=O)NCc2c(-c3ccccc3)noc2C)c1	-14	x	8	i	-8	-4	-1	-6
C=CCc1c(C)c(C#N)c2nc3ccccc3n2c1N1CCCCC1	5	x	30	i	0	9	-4	-9
COCCN(C(=O)CCC(=O)Nc1cc(C)on1)C(C(=O)NC(C)(C)C)c1ccccc1Cl (stereo not given)	x	7	5	i	13	-7	-2	-1
Cc1ccc(NC(=O)CSc2nnc(Cc3csc(C)n3)o2)c(C)c1	-6	x	-25	i	x	x	0	0
CCN(c1ccc(NC(=O)COC(=O)CCc2cc(OC)c(OC)c(OC)c2)cc1)C(C)C	x	x	4	i	13	-5	1	8
COc1ccc(S(=O)(=O)N(CC(=O)NCCSc2ccccn2)c2ccccc2)cc1	1	-25	3	i	2	0	-5	-4
COc1ccccc1CNC(=O)C(NC(=O)c1ccc(C)cc1)C(C)C (stereo not given)	-5	x	-20	x	-10	-3	-9	-8
CC(=O)Nc1ccc(NC(=O)C(C)Sc2n[nH]c(-c3ccc(C)cc3)n2)cc1 (stereo not given)	-9	-11	-24	i	x	x	1	5
O=C(NCCCN1CCCC1=O)c1cccc(S(=O)(=O)N2CCN(c3ccccc3)CC2)c1	11	-11	-5	i	4	0	0	-6
CCn1cnc2sc(C(=O)O)c(C)c2c1=O	x	-20	-16	i	2	5	-1	2
COc1ccc(CCn2c(=N)c(C(=O)NCC3CCCO3)cc3c(=O)n4cccc(C)c4nc32)cc1OC (stereo not given)	-17	-9	4	u	-2	-6	-6	-5
CC(=O)N1N=C(c2cccs2)CC1c1ccc(Br)cc1 (stereo not given)	-4	-3	-73	i	-2	-11	1	-7
O=C(c1cccc(OC2CCN(Cc3cccc(OCCO)c3)CC2)c1)N1CCCC1	2	-15	6	i	-2	-7	-1	-5
CCN(CC)S(=O)(=O)c1ccc(Cl)c(C(=O)Nc2nnc(C)s2)c1	-18	3	-49	i	6	0	3	-4
COc1ccc(/C=C/C(=O)NCC(=O)N/N=C/c2cc(Br)ccc2OCc2ccccc2)cc1	-1	x	x	i	-1	2	-2	-5
Cc1cc(C(=O)COc2ccc(C#N)cc2)c(C)n1CC1CCCO1 (stereo not given)	-17	-7	x	x	x	x	0	-10
On1nnc2ccc(C(F)(F)F)cc21	2	x	8	i	-11	-5	3	6
CCOc1ccc(NC(=O)N2CCC(c3nc4ccccc4o3)CC2)cc1	-19	x	22	i	-4	-3	6	-1
Cc1cc(-c2nnc(CCC(=O)NCC(C)c3ccccc3)o2)no1 (stereo not given)	-13	-18	24	i	3	-12	0	3
COc1ccc(NC(=O)c2onc(C)c2Cl)cc1OC	13	-19	-12	i	-3	0	-2	0
O=C(NCCSc1ccc(Br)cc1)c1ccc2nc[nH]c2c1	2	-17	1	i	9	30	1	-2
CCC(C(=O)N1CCOCC1)n1nc(C)c2c(C)n(-c3ccccc3)nc2c1=O (stereo not given)	-2	-3	-3	i	5	-29	-2	-2
Cc1ccc(OCCCN2CCOCC2)cc1	-21	-4	10	i	6	9	x	x
Cc1cccc(NC(=O)C2CCCN2C(=O)OCC(C)C)c1C (stereo not given)	-7	-13	-6	i	-6	0	-5	-8
COc1ccc2c(c1)cc(C(=O)O)n2C	-7	-24	-13	x	8	-6	1	7
O=C(CN1CCN(c2ccc(F)cc2)CC1)OCc1ccccc1	-11	-9	-97	i	23	-1	1	-2
CC(=O)Nc1ccc(S(=O)(=O)N(C)CC(=O)OCC(=O)N2CCCCCC2)cc1	5	-8	8	i	-4	0	-1	2
Cc1cc(C)cc(C(=O)Nc2ccc(N3CCN(S(C)(=O)=O)CC3)cc2)c1	-8	x	15	i	9	5	1	8
Cn1cccc1-c1cc(C(=O)O)[nH]n1	-2	-16	-36	i	17	10	1	4
CC12CCC(C(=O)N(NC(=O)c3ccccc3O)C1=O)C2(C)C (stereo not given)	-7	x	x	i	-6	11	2	1
COc1ccc(NS(=O)(=O)/C=C/c2ccc(OC)c(OC)c2)cc1	-1	x	2	i	-3	3	-6	0
Cc1cc(-c2nc3ncccc3o2)ccc1N	-2	-22	-291	i	24	-3	4	2
CCN(CC(=O)Nc1ccc(NC(C)=O)cc1)C(=O)c1cc(CN2C(=O)c3ccccc3C2=O)ccc1OC	-1	-8	1	i	x	x	5	5
Nc1nc(Oc2ccc(F)cc2)c(Br)c(=O)[nH]1	-7	-4	4	x	11	7	7	-2
COc1ccc(-c2noc(N3CCC(C(=O)Nc4ccc(OC)c(OC)c4)CC3)n2)cc1	-4	-7	-54	i	-16	-6	5	-1
NS(=O)(=O)c1ccc(CCNC(=O)c2ccc([N+](=O)[O-])cc2[N+](=O)[O-])cc1	-6	x	-7	i	-9	0	3	2
CCCn1nc(C(=O)Nc2ccc(S(=O)(=O)Nc3ncccn3)cc2)c2ccccc2c1=O	-4	-16	14	i	4	21	-4	5
CC1CC(C)CN(C(=O)CCNS(=O)(=O)c2ccc3c(c2)CCC(=O)N3)C1 (stereo not given)	24	-17	-11	i	-6	-6	-4	0
O=C(NCc1ccccn1)c1cccc(S(=O)(=O)Nc2ccccc2Cl)c1	-16	-2	-2	x	x	x	4	2
COc1ccc(CCN(Cc2cc3cccc(C)c3n3nnnc23)C(=O)c2ccncc2)cc1OC	3	x	x	i	6	0	x	x
O=C(Nc1ccc2c(c1)C(=O)N(CC1CCCO1)C2=O)c1ccccc1Br (stereo not given)	x	-2	-100	i	5	5	4	5
O=S(=O)(Cc1nnnn1-c1ccc(Br)cc1)c1ccccc1	x	-15	-4	x	x	x	1	1
O=C(c1ccc(OC2CCN(CCc3ccccc3)CC2)cc1)N1CCCC1	5	-3	2	i	4	7	-6	4
COc1cc(OC)cc(C(=O)NC(C(=O)NCc2ccccn2)C(C)C)c1 (stereo not given)	2	-15	x	x	x	x	0	2
Cc1ccccc1NC(=O)c1cnn(-c2ccccc2)c1C	9	-7	-3	i	2	-4	-4	-4
N=C1/C(=C/c2ccc(Br)o2)C(=O)N=C2SC(CC(=O)N3CCCC3)=NN12	-7	-5	-63	i	x	x	13	48
CCc1nnc(NS(=O)(=O)c2ccc(NC(=O)c3ccc(Cl)cc3)cc2)s1	-7	x	-4	i	0	-5	2	0
OC(COc1ccc2c(c1)OCO2)CN1CCN(c2ccc(F)cc2)CC1 (stereo not given)	12	-9	-8	i	-13	-4	1	5
CN(CC(=O)Nc1ccc(F)c(Cl)c1)S(=O)(=O)c1ccc2c(c1)n(C)c(=O)c(=O)n2C	-9	-26	8	i	-6	-5	-3	-1
Cc1ccccc1CS(=O)(=O)c1ncc(Cl)c(C(=O)Nc2ccc(F)cc2)n1	98*	-16	24	i	x	x	-5	-3
O=C(Nc1ccc(C(=O)O)cc1)/C(=C\c1ccc2c(c1)OCO2)NC(=O)c1ccc(Br)o1	-14	x	-1	i	-9	0	-4	3

An excerpt, so the mix of outcomes need not match the whole.
